Compound activity (PubChem BioAssay)
Ecoli growth – inhibitors of Escherichia coli growth. OD600, 23 h; stronger effect = lower value. OD600 absorbance (test concentration not listed). actives 0.21% (n = 330,000). AID 1053175;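 active means OD600 absorbance below the run mean of sample wells minus 3.6 SD, in any replicate, cut at about 0.56 in these data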;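 further: stock transfer was 300 nL into about 60 µL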
AF4-AF9 inh – blocks AF4 peptide binding to human AF9; AlphaScreen, biotin-AF4 peptide binding to FLAG-AF9; inhibition, % at 10 µM; actives 0.47% (n = 350,000); AID 651704;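 active means every replicate reaching a set inhibition limit, whatever the replicate mean, cut at about 25% in these data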;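 further: 0% = plate neutral control median and 100% = total signal loss; the record names both 10 and 1 µM as test concentration; the first replicate is given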
Target sequence (P42568 whole entry, looked up): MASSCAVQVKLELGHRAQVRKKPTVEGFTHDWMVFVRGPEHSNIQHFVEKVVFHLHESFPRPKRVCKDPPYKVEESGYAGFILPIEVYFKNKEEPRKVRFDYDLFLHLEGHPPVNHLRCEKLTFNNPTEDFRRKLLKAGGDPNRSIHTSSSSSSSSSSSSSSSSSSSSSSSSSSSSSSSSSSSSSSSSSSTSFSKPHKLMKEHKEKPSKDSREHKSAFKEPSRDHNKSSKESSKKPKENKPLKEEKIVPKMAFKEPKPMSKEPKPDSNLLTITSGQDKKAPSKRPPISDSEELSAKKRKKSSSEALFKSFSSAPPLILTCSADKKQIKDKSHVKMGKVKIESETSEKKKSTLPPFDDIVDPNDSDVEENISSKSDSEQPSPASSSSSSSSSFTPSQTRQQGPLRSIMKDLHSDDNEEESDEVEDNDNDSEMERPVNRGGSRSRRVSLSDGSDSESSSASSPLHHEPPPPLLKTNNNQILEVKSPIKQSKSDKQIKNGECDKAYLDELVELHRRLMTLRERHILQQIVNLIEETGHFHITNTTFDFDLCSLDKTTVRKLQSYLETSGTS
Vif TR-FRET – HIV-1 Vif–A3G interaction blockers – biochemical, TR-FRET, GST-Vif 1-94, biotin-A3G peptide, dose response retest, primary screen (AID 1117319). TR-FRET GST-Vif / biotin-A3G peptide binding; higher % means a stronger effect; test concentration not given here; strong numbers were not always called active. actives 0.57% (n = 260,000). one-dose inhibition, %; IC50 in µM for titrated hits;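 active means above the screen mean plus three standard deviations and confirmed in dose response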;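 further: Vif residues 1-94 fused to GST binding biotinylated APOBEC3G peptide 110-148; 0% = full assay without inhibitor and 100% = GST in place of GST-Vif; retest series ran down from 100 µM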
FGF22 binding – binders of recombinant human FGF22 by thermal shift; Q9HCT0; AID 651658; actives 1.5% (n = 340,000); calls only at 9.99 µM; SYPRO orange fluorescence; percent of sucrose octasulfate shift, DMSO zero;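 active means melting point raised past a set limit in the mean and every replicate; three in four hits are not shown here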
Target sequence (Q9HCT0 whole entry, looked up): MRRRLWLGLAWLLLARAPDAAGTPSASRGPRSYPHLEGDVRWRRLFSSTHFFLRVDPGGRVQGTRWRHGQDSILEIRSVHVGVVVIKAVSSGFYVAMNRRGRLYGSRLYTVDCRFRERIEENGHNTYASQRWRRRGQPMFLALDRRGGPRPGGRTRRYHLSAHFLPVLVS
HNF4A DNA FP – change in binding of human HNF4 alpha to DNA; actives 0.3% (n = 360,000); HNF4a-FITC DNA binding, fluorescence polarization, 1 h; P41235; activity change, % at 10 µM; in the data active means activity change above about 30%, passing the limit was not always enough;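 further: controls were the assay level and a saturating level of protein; the project sought stronger binding though the title names inhibitors; some compounds called inactive have numbers as strong as hits; positive values seem to mean higher polarization but the record does not say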
ALR H2O2 inh – human ALR oxidase inhibition via reduced H2O2; P55789; purified ALR, DTT oxidation, H2O2 HRP-luminol luminescence; inhibition, % (concentration not given with the values); actives 3.8% (n = 290,000); AID 485317;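 active means mean and each replicate at 75% or more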;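 further: stock transfer was 7.5 nL into about 7.5 µL; 0% = neutral wells and 100% = wells with inactivated enzyme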
Target sequence (P55789 whole entry, looked up): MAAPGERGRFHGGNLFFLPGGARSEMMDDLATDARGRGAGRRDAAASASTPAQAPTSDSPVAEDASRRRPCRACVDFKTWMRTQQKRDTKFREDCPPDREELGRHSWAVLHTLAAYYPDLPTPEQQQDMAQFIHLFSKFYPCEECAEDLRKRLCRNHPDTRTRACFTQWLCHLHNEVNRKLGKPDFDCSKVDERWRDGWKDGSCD
rRNA inh HTS – inhibitors of bacterial rRNA selective over humanized ribosomes; E. coli WT GFP vs humanized-ribosome RFP mutants, fluorescence, 24 h; stronger effect = lower value; DMSO median 0, no signal -100; GFP signal change (wild-type ribosome), % (test concentration not listed); actives 1.6% (n = 350,000); AID 720706;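 active means significant combined selectivity score with lowered wild-type GFP, culture density cut under 30%, mutant RFP and density less affected; inactive means any of these conditions unmet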; further: one replicate is shown; some compounds called inactive have numbers as strong as hits
rRNA inh HTS OD600 – also measured in rRNA inh HTS; calls as there; OD600 change, %; measured here: OD600 growth;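 optical density of the mix in the first replicate; 0 = DMSO median and -100 = no signal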
rRNA inh HTS RFP – second read-out of rRNA inh HTS, no call of its own (marks repeat the call); RFP signal change, %; measured here: RFP humanized mutant strains;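 first replicate; 0 = DMSO median and -100 = no signal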
* = called active by the depositor; i = inactive; · = no result given; + = active, no number; & = joins results of further samples.

Structure	Ecoli growth	Vif TR-FRET	ALR H2O2 inh	AF4-AF9 inh	rRNA inh HTS OD600	rRNA inh HTS	HNF4A DNA FP	FGF22 binding	rRNA inh HTS RFP
Cc1ccc(C(=O)N/C(=C\c2cn(C)c3ccccc23)C(=O)NCCCn2ccnc2)cc1	0.616	-1.5%	7.2	5.3	-1.0	1.7	1.3	i	-1.4
CCN1CCN(C(=O)NS(=O)(=O)c2ccc(C)cc2)CC1	0.683	-0.1%	·	-0.4	13.2	17.1	0.9	i	1.2
COc1ccc(-c2csc(Nc3cccc(C)n3)n2)cc1C	0.704	-5.1%	2.5	2.9	-1.2	-0.8	3.6	i	-1.7
O=C(CSc1ccc2c(c1)OCCO2)Nc1ccc(Cl)cn1	0.671	-5.4%	88.6*	·	·	·	2.2	·	·
O=C(CN1C(=O)NC(c2ccccc2)(c2ccccc2)C1=O)NCCNCCO	0.703	7.3%	-11.4	0.7	1.7	3.6	-0.3	i	-0.7
CC(C)(C)S(=O)(=O)N1C[C@@H]2CC/C=C\C/C(c3ccccc3)=C\2[C@H]1CCO	0.704	-1.2%	·	-6.0	-9.8	-3.2	2.5	·	1.8
O=C1c2ccccc2C(O)(c2ncc[nH]2)N1C1CCCCC1 (centres undefined)	0.714	-3.9%	-9.2	·	·	·	-1.1	·	·
O=C(O)CN1C(=O)C2(OCCCO2)c2ccccc21	0.704	4.1%	-2.6	·	·	·	0.5	·	·
CC(C)NC(=O)N1[C@@H]2c3cccc(=O)n3C[C@@H]2[C@@H](CO)[C@@H]1C(=O)N1CCC(Cc2ccccc2)CC1	·	·	·	-24.5	4.9	3.6	·	i	4.5
C[C@@H]1CN([C@@H](C)CO)C(=O)CCCn2nncc2CO[C@@H]1CN(C)S(=O)(=O)c1ccccc1C#N	·	·	·	-2.3&-1.3	7.9&-13.4	-1.7&0.5	-6.2	i	2.4&-1.8
C=CCc1cccc2ccc(=O)oc12	0.654	18.6%	·	-3.9	6.6	-1.4	-2.9	i	-16.7
COc1ccc(CNS(=O)(=O)CCNCc2ccco2)cc1	·	·	·	-2.6	13.4	0.0	1.8	i	0.5
CCOc1ccc(C(=O)NNC2CC(=O)N(Cc3ccc(Cl)cc3)C2=O)cc1OC (centres undefined)	0.706	-1.3%	97.3*	2.1	-9.3	-15.9	0.6	i	5.2
CCN1CCSc2ccc(C(=O)NCc3cccc(F)c3)cc21	0.767	·	98.6*	0.3	-10.1	4.5	-4.2	i	4.8
Cc1cccc(NC(=O)c2cc3c([nH]c4ccccc43)c(C)n2)c1C	0.664	·	-2.5	·	·	·	2.6	·	·
O=C(CSc1n[nH]c(=O)n1Cc1ccco1)N1CCOCC1	0.657	-2.4%	-4.3	-1.2	9.6	11.6	0.4	i	-0.5
CCN(c1ccccc1)S(=O)(=O)c1cnc[nH]1	0.69	30.7%	-4.2	·	·	·	1.8	·	·
C[C@@H]1CN([C@@H](C)CO)C(=O)Cc2cc(NC(=O)Nc3cccc4ccccc34)ccc2O[C@H]1CN(C)Cc1ccc(Cl)c(Cl)c1	·	·	·	1.4	-10.0	0.0	·	i	-1.1
Cc1cc(C(=O)NNC(=O)C(C)NS(=O)(=O)c2ccccc2F)c(C)o1 (centres undefined)	0.687	·	·	0.7	11.4	7.1	2.0	i	-0.2
O=C(C[C@@H]1CC[C@H](NC(=O)c2ccncc2)[C@@H](CO)O1)NCC1CCCCC1	·	·	·	-1.0	3.7	0.7	·	i	-1.5
N#CCSc1nc2cc(C(=O)N3CCCC3)ccc2c(=O)n1Cc1ccccc1	0.732	-0.1%	0.5	·	·	·	-0.7	·	·
CCOCCCn1c(SCC(=O)/C(C#N)=C(\C)N)nc2ccccc2c1=O	0.682	·	-0.6	-0.8	10.9	10.4	-0.9	i	2.7
COc1ccccc1S(=O)(=O)Nc1ccc2c(c1)C(=O)N(C)C[C@H](OC)[C@H](C)CN[C@H](C)CO2	·	·	·	-1.7	-0.4	3.2	·	i	-0.5
COc1ccc(C2OCC3(CO2)SC(=O)NC3=O)cc1 (centres undefined)	0.655	-0.1%	26.4	·	·	·	-3.3	·	·
COc1ccc2c(c1OC)C(=O)N(c1cccc(/C=C/C(=O)O)c1)C2	0.679	-3.2%	43.2	-2.6	-28.1	-15.8	4.6	i	-20.4
COc1ccc2nc(NC(=O)C3CC(=O)N(c4ccccc4)C3)sc2c1 (centres undefined)	0.642	·	-7.5	-0.9	-32.5	-17.6	0.0	i	11.7
COc1ccc(NC(C)=[N+](C)CCNS(=O)(=O)c2ccc(Cl)cc2)cc1	0.729	-6.2%	6.8	1.8	15.5	7.6	-1.9	i	2.0
CCOc1cc(NC(=S)NCC2CCCO2)c(OCC)cc1NC(=O)CC(C)C (centres undefined)	0.73	·	·	0.9	1.9	4.4	-1.3	i	-2.4
O=C(Cn1cc(C(=O)C(F)(F)F)c2ccccc21)Nc1ccccc1F	0.696	-6.5%	1.4	-3.9	4.3	9.3	-0.5	i	-2.1
CCC(=O)N(C)C[C@@H]1Oc2cc(-c3ccccc3OC)ccc2S(=O)(=O)N([C@@H](C)CO)C[C@H]1C	·	·	·	0.7	-3.6	1.9	·	i	2.0
Cc1ccccc1OC1(C)CCN(Cc2ccc3ccccc3c2)C1 (centres undefined)	·	·	·	-3.4	-62.5	-31.7	-0.1	i	-6.0
CCOC(=O)CC1(NC(=O)c2cc(COc3cccc(OC)c3)on2)CCCCC1	0.667	·	-3.6	-6.3	-18.2	-22.6	1.3	i	-3.7
COc1cc(C(=O)Nc2nc3ccc(S(=O)(=O)N4CCOCC4)cc3s2)cc(OC)c1OC	0.666	-4.4%&-2.8%	-8.1	·	·	·	2.5	·	·
O=C(CN1CCCCCC1)NCc1ccccc1	0.679	·	3.2	1.3	15.2	15.9	8.8	i	3.2
O=C(COC(=O)CC(c1ccccc1)c1ccccc1)Nc1cccc(F)c1	0.672	·	-3.3	-1.1	·	·	-2.1	i	·
Nc1ccc(CCc2nc3ccccc3o2)cc1	0.67	16.6%	91.5*	·	·	·	2.8	·	·
COc1ccc2c(/C=N/NS(=O)(=O)c3ccc(C)cc3)c[nH]c2c1	·	-7.0%	89.3*	-2.4	-8.0	0.0	1.3	+	-1.2
O=C(NNc1ncccc1Cl)c1c(Cl)cccc1Cl	0.71	-6.0%	-4.4	-3.3	13.6	10.8	5.7	i	0.0
C[C@H]1CCCCO[C@H](CN(C)CC2CC2)[C@@H](C)CN([C@@H](C)CO)C(=O)c2cc(NC(=O)CCC(F)(F)F)ccc2O1	·	·	·	-1.1	14.1	2.3	·	i	-2.9
CCOc1ccc(NC(=O)CN(C)C(=O)c2cc(C3CC3)nn2-c2ccccc2)cc1OCC	0.682	-7.5%	·	2.4	-1.6	-2.8	4.1	i	-2.5
COCC(=O)N1CC[C@@H]2[C@H]1c1cc(C#Cc3ccc(OC)cc3)ccc1N[C@@H]2CO	·	·	·	-1.5	8.5	-6.5	·	i	1.2
C[C@H](CO)N1C[C@H](C)[C@@H](CN(C)C(=O)C2CC2)Oc2cc(-c3cccc(C#N)c3)ccc2S1(=O)=O	·	·	·	1.8	-11.4	-2.9	·	i	0.0
CC(C)(C)c1cc(C(=O)N/N=C/c2ccccc2O)n(-c2ccccc2)n1	·	8.3%	-3.5	·	·	·	-0.7	·	·
CSCCC(C(=O)NCc1ccccc1)n1c(Cc2cc(F)cc(F)c2)nc2ccccc21 (centres undefined)	·	·	·	-2.3	-38.2	-5.4	-1.5	i	-2.6
CCN(CC)c1ccc(/C=N/n2c(-c3ccccc3Br)n[nH]c2=S)cc1	·	·	97.0*	0.8	-10.2	7.5	0.2	i	10.6
CCOC(=O)[C@H]1[C@H]2COc3ccc(Cl)cc3[C@@H]2N2C(=O)CN(Cc3ccc(F)cc3)C(=O)[C@@]12C	·	·	-0.9	0.4	-38.8	-18.7	1.0	i	-10.7
Cc1cc2c3c([nH]c2cc1S(=O)(=O)N1CCC2(CC1)OCCO2)CCCC3=O	0.696	·	-2.0	-1.0	-13.6	0.3	-1.0	i	1.8
CC1=C(C(=O)OCc2ccccc2)C(c2ccccc2Cl)NC(=O)N1C (centres undefined)	0.672	·	-6.9	-0.8	-53.4	-29.6	-2.9	i	-4.9
COc1ccc(C)cc1-n1nnnc1SCC(=O)NC(=O)NCc1ccco1	0.706	21.0%&19.9%	3.2	5.4	4.9	5.3	-9.1	i	3.1
CNC(=O)CCSSCCC(=O)NC	0.676	-6.8%	6.5	-1.6	-28.9	-13.8	1.3	i	-4.7

The list continues.
Structure	Ecoli growth	Vif TR-FRET	ALR H2O2 inh	AF4-AF9 inh	rRNA inh HTS OD600	rRNA inh HTS	HNF4A DNA FP	FGF22 binding	rRNA inh HTS RFP
COc1ccc(OC)c(-c2cc(C(=O)Nc3c(C)nn(Cc4ccccc4C)c3C)no2)c1	0.751	2.2%	-8.8	0.2	4.8	-24.8	2.7	i	26.8
CC(C)(C)c1ccc(OCCn2ccccc2=O)cc1	0.725	0.0%	·	·	·	·	0.8	·	·
O=C(c1ccc2c(=O)n3c(nc2c1)CCCCC3)N1CCN(c2ccc([N+](=O)[O-])cc2)CC1	0.667	·	32.8	2.4	-18.8	-18.0	0.2	i	0.8
O=C1N(CN2CCN(Cc3ccccc3)CC2)c2ccccc2C12OCCCO2	0.688	7.3%	-3.0	-0.5	7.1	-0.9	-0.9	i	-1.8
COc1ccccc1CNC(=O)C1CCC(=O)N(CCCN2CCCC2=O)C1 (centres undefined)	0.73	·	-10.9	-2.5	1.8	-0.1	-0.9	i	-3.3
O=C(COC(=O)/C=C/c1ccccc1)Nc1cccc(Oc2ccccc2)c1	0.695	·	-7.6	-9.6	10.4	8.0	-4.2	i	3.5
Cc1ccc(NC(=O)Cn2cccc2)c(C)c1	0.716	-3.7%	1.5	·	·	·	-0.9	·	·
CC(=O)CC1c2cc(F)ccc2C=C(c2ccsc2)N1c1ccc(-c2ccc(C(N)=O)cc2)cc1 (centres undefined)	·	·	·	1.3	-20.0	-9.2	2.5	i	-3.1
CC(C)NC(=O)N(C)C[C@H]1Oc2c(NS(C)(=O)=O)cccc2C(=O)N([C@H](C)CO)C[C@H]1C	·	·	·	-2.9	13.3	5.1	·	i	-1.5
C[C@H]1CN([C@@H](C)CO)C(=O)Cc2cc(NC(=O)c3ccncc3)ccc2O[C@@H]1CN(C)S(=O)(=O)c1cccs1	·	·	·	0.0	-2.4	-3.2	·	i	-0.4
COC(=O)c1cc2ccsc2n1Cc1nc(-c2ccc(Cl)cc2)oc1C	0.736	-1.8%	-68.5	4.1	-3.4	-3.6	2.3	i	-1.0
COc1ccc(/C=N/Nc2nnc(Cc3ccccc3)c(=O)[nH]2)cc1	·	0.7%	-5.5	0.4	10.1	9.1	0.9	i	0.1
CC(Sc1ncccn1)C(=O)NC1CCCC1 (centres undefined)	0.67	-4.2%	-0.6	0.2	17.2	16.6	4.4	i	0.0
NC(=O)c1ccc(-n2nnnc2Oc2ccccc2C(=O)N2CCOCC2)cc1	0.696	2.8%	-3.3	·	·	·	-1.8	·	·
CN(C)CC(=O)Nc1ccc2c(c1)[C@H]1C[C@@H](CC(=O)NCc3ccccn3)O[C@@H](CO)[C@H]1O2	·	·	·	-2.8	-1.6	2.0	·	i	-0.2
O=C(O)C[C@H]1CC[C@@H](NC(=O)Nc2cc(F)ccc2F)[C@@H](CO)O1	·	·	·	-2.1	-6.2	0.9	·	i	-3.9

An excerpt (hit frequency here may not be typical).
